# KCNQ2 enhance – potentiators of rat KCNQ2 potassium channel; Potassium voltage-gated channel subfamily KQT member 2 (Rattus norvegicus), O88943; 0.54% of 310,000 active; B-score at 10 µM; CHO-K1 KCNQ2, FluxOR thallium flux fluorescence; stronger effect = higher value;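 active = fluorescence ratio B-score at least 3 SD of library B-scores, with initial fluorescence B-score within 3 SD, cut at about 5.3 in these data; same plate scores as AID 2156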;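 also: B-score of peak minus minimum over baseline fluorescence ratio after K+ and Tl+ stimulus; positive B-score means potentiation of KCNQ2 with more thallium influx and brighter signal; only the inactives scoring about 0 or higher are listed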
# Target sequence (O88943 whole entry, looked up): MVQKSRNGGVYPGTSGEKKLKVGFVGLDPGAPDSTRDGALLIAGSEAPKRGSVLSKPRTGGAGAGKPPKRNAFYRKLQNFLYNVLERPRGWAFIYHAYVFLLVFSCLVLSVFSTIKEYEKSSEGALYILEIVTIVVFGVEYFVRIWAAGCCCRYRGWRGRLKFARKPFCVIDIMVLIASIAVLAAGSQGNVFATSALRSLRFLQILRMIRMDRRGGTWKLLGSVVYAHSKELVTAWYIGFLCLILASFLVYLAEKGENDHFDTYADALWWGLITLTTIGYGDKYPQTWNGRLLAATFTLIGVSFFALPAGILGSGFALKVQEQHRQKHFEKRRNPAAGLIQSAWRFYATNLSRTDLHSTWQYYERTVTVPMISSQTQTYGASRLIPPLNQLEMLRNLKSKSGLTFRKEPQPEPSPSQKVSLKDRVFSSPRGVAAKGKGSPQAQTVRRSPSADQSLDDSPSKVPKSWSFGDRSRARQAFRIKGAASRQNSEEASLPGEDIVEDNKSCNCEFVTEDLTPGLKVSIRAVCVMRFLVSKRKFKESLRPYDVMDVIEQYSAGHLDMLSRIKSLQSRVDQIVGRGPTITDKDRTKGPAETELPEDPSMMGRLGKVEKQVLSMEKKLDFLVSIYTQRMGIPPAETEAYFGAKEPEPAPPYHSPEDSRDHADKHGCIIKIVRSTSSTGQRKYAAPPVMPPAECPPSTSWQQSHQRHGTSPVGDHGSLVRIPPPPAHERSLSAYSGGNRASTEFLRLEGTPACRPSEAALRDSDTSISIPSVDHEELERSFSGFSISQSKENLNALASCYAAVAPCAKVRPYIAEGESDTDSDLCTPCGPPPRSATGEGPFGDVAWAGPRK
# KCNQ2 enhance baseline – recorded beside KCNQ2 enhance, whose call it bears; B-score; compound at 10 µM; measured here: initial fluorescence intensity artifact check;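 brightness before thallium and not channel activity; 0 = typical well and far values either way flag optical interference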
# * = called active by the depositor. An excerpt, so the mix of outcomes need not match the whole.
KCNQ2 enhance baseline,KCNQ2 enhance,structure
-0.93,0.21,CCC(Oc1ccc(C)c(C)c1)C(=O)O (centres undefined)
0.36,1.2,N#CCCCCn1ccc(NC(=O)c2ccc(Cl)cc2O)n1
-0.75,0.54,CCC(Cc1ccccc1)NS(=O)(=O)c1ccc2c(c1)NC(=O)CS2 (centres undefined)
-0.14,0.87,C=CCN(C(=O)c1csnn1)C(C(=O)NC1CCCC1)c1ccc(Cl)cc1 (centres undefined)
-1.1,2,O=C(CCC(=O)N1CCCc2ccccc21)N1CCN(S(=O)(=O)c2ccccc2)CC1
2.1,0.67,N#Cc1ccc2c(c1)nc1ccccn12
1.5,0.77,CN1C(=O)C(C)(C)c2cc(S(=O)(=O)N3CCCC3C(=O)NCc3ccc(F)cc3)ccc21 (centres undefined)
0.55,0.04,COc1ccc(C(=O)c2c(C(F)(F)F)oc3c2C(=O)c2ccccc2C3=O)cc1OC
0.84,0.75,Cn1c(=O)c2c(ncn2CC(=O)N2CCN(c3ccccc3F)CC2)n(C)c1=O
1.1,0.42,O=C(CCC1CCCC1)NCc1ccccn1
-0.3,0.1,CCOC(=O)c1ccc(N/C(=N/S(=O)(=O)c2ccccc2)c2ccccc2)cc1
0.68,0.12,CCOc1ccc2nc(SCC(=O)Nc3cc4c(cc3C(C)=O)OCO4)[nH]c2c1
0.07,0.39,COc1ccc(CN2CCN(Cc3ccc(OC)c(OC)c3OC)CC2)cc1
-0.04,2,O=c1cc(NCc2ccccc2)nc2ccccn12
-1.2,0.61,COc1cc(/C=C2/C(=O)NN(c3ccc(F)cc3)C2=O)cc([N+](=O)[O-])c1O

# New compounds follow:
KCNQ2 enhance baseline,KCNQ2 enhance,structure
0.13,0.54,CCC1(CC)Cc2ccccc2C2=C(C(=O)N3CCCCC3)C(=O)C(=O)N21
-0.66,2.5,COc1ccc(/C=C(\NC(=O)c2ccco2)C(=O)NCCc2nc3ccccc3[nH]2)cc1
-0.14,0.73,COC(=O)c1cn(Cc2cc(OC)ccc2OC)cc(F)c1=O
0.12,2.6,Cc1cc(C(=O)Nc2ccc3c(c2)OCCO3)c(C)o1
-0.73,0.79,CC(=O)Nc1ccc(N2C(=O)CSC2c2ccc([N+](=O)[O-])cc2)cc1 (centres undefined)
-1.5,0.52,CCC(C)[C@H](NC(=O)[C@@H]1Cc2ccccc2CN1C(=O)OC(C)(C)C)C(=O)NCC1CCC(C(=O)O)CC1 (some centres undefined)
-0.92,1.3,O=C(OCC(=O)N1CCc2ccccc2C1)c1ccc(N2CCOCC2)c([N+](=O)[O-])c1
-0.89,0.44,O=C(Nc1ccc(NC(=O)c2ccco2)cc1)c1cnccn1
-0.38,1.1,O=C(O)c1cc(N/N=C/c2ccc(N3CCOCC3)s2)ccc1Cl
0.79,0.54,CCCCn1cc(C(=O)c2cc(Br)ccc2O)cc(C#N)c1=O
-0.06,0.03,c1ccc(CN=C2Nc3ccccc3CS2)nc1
-1.4,0.54,CS(=O)(=O)Nc1cccc(C2=NN(C(=O)c3ccccc3Cl)C(c3ccccc3O)C2)c1 (centres undefined)
-0.05,1.1,O=C(CC(NS(=O)(=O)c1ccc(Cl)cc1)c1ccco1)N1CCc2ccccc21 (centres undefined)
1.1,1.9,CC(=O)c1ccc(N2CCN(C(=O)C3CCCN(S(=O)(=O)c4cnc[nH]4)C3)CC2)cc1 (centres undefined)
-1.4,0.32,CNC(=O)c1cccc2cccc(Sc3ccccc3C(=O)O)c12

# Quoted from the listing:
# Value for `CNC(=O)c1cccc2cccc(Sc3ccccc3C(=O)O)c12` in KCNQ2 enhance: 0.32
# Value for `c1ccc(CN=C2Nc3ccccc3CS2)nc1` in KCNQ2 enhance baseline: -0.06
# Value for `COC(=O)c1cn(Cc2cc(OC)ccc2OC)cc(F)c1=O` in KCNQ2 enhance baseline: -0.14

# Two entries from above, set out differently:
# Every second line gives: KCNQ2 enhance baseline, KCNQ2 enhance
- COc1cc(/C=C2/C(=O)NN(c3ccc(F)cc3)C2=O)cc([N+](=O)[O-])c1O
  -1.2, 0.61
- CCC1(CC)Cc2ccccc2C2=C(C(=O)N3CCCCC3)C(=O)C(=O)N21
  0.13, 0.54

# Later entries
KCNQ2 enhance baseline,KCNQ2 enhance,structure
-0.51,0.44,Cc1ccc(CC2CC(=O)N(c3nc4ccccc4n3C)C2=O)cc1 (centres undefined)
-0.03,0.02,COCCCNC(=O)c1ccc(C2SCC(=O)N2Cc2ccco2)cc1 (centres undefined)
0.09,0.81,Cc1onc(-c2ccccc2)c1C(=O)N1CCN(Cc2ccc3c(c2)OCO3)CC1
-1.8,0.84,CCN(CC)S(=O)(=O)c1ccc(N2CCCC2)c(C(=O)Nc2ccc(OC)c(Cl)c2)c1
-0.23,1.1,CCOc1ccc2[nH]cc(C(=O)NCCCN3CCOCC3)c(=O)c2c1
-0.56,0.66,CCCCn1c(SCc2nnc(-c3ccccc3)o2)nc2c1c(=O)n(C)c(=O)n2C
2.6,0.38,CC(=O)Nc1cccc(C(=O)Oc2cccc(C)c2)c1O
-0.93,0.66,COc1c(C(O)CC(C)C)ccc2c1C(=O)OCc1cc(C)cc(O)c1O2 (centres undefined)
1.2,1,FC(F)(F)c1cccc(NC(=S)NC2CCCC2)c1
0.24,1.8,CC(=O)c1c(C)[nH]c(C(=O)OCC(=O)Nc2ccc(Cl)c(S(=O)(=O)N(C)C)c2)c1C
0.31,0.03,FC(F)(F)c1ccc(Cl)c(-n2c(-c3cc(-c4ccco4)[nH]n3)n[nH]c2=S)c1
2.7,0.64,CCOC(=O)N1CCC(NC(=O)c2cccs2)CC1
1,0.17,NS(=O)(=O)c1ccc(N2N=C(c3ccccc3)CC2c2ccccc2)cc1 (centres undefined)
-1.6,0.02,COc1ccc(C(=O)Nc2ccc3ccccc3c2)cc1
1.1,0.01,Cc1ccc(NC(=O)C(C)Sc2nc(-c3ccccc3)cc(=O)[nH]2)cc1 (centres undefined)

# The results go on:
KCNQ2 enhance baseline,KCNQ2 enhance,structure
1.1,0.54,CCN1CCN(c2ncc3c(n2)CC(c2ccc(OC)c(OC)c2)CC3=O)CC1 (centres undefined)
-1,0.16,CC(C)NC(=O)Cn1nc(C(F)(F)F)c2c1CCC2
0.55,1.6,CC(C)c1ccc(NC(=O)C2C3C=CC4(O3)C2C(=O)N(CCCN2CCOCC2)C4C(=O)NC2CCCCC2)cc1 (centres undefined)
-2.1,0.24,OCc1cccc[n+]1Cc1ccccc1
1.1,1.4,Oc1ccc(N=Nc2ccc3c(c2)OCCO3)c(O)c1
-1.5,0.46,CCCOc1ccc2c3c(c(=O)oc2c1OCCC)CCCC3
-0.4,0.29,CCCCNCC1CCCO1 (centres undefined)
-0.88*,6.1*,CCOc1cc(N2CCOCC2)c(OCC)cc1NC(=O)CN1CCC(Cc2ccccc2)CC1
2.3,0.04,COc1ccc(NC(=O)CSCc2ccc(C)cc2)cc1
-0.87,0.03,CCOc1ccc(N2C(=O)CSC2=S)cc1
1.4,1.3,Cn1c(NC(=O)c2ccc(Cl)cc2)cc(=O)n(C)c1=O
-1.6,1.5,Cc1nc(Nc2ccccc2)[nH]c(=O)c1CCC(C)C
-0.29,0.42,N#Cc1ccccc1CCN1C(=O)c2ccccc2C1=O
1.1,0.06,CNc1cnn(-c2ccccc2)c(=O)c1Cl
1.6,0.13,CCn1cc(C(=O)Nc2ccc(OC)c(S(=O)(=O)N3CCCCC3)c2)c(=O)c2ccc(C)nc21

# Following part
KCNQ2 enhance baseline,KCNQ2 enhance,structure
2,0.71,CC(C)(C)c1ccc(S(=O)(=O)NCC(=O)Nc2ccc(-c3nc4ccccc4s3)cc2)cc1
-2.3,0.01,O=C(O)C[C@H]1c2cc(F)ccc2S(=O)(=O)N1C1CCN(Cc2ccccc2)CC1
0.03,0.05,CC(=O)Nc1ccc(OC(=O)Oc2ccc(NC(C)=O)cc2)cc1
-0.04,0.88,CC(Oc1ccccc1)c1nnc(SCC(=O)NC2CC2)n1C (centres undefined)
-1.9,1.4,CCCN1CNC(=S)N(c2ccc(C(=O)OCC)cc2)C1
0.79,2.2,CC(C)OC(=O)c1c(NS(=O)(=O)c2ccccc2)sc2c1CCCC2
1,1.4,Cc1ccc(NC(=O)CSc2nc3c(c(=O)[nH]2)CN(Cc2ccc(F)cc2)CC3)cc1C
-1.1,0.43,O=C(Cn1cnc([N+](=O)[O-])c1)Nc1ccccc1C(F)(F)F
-0.4,0.03,Cc1cccc(Oc2ncnc3onc(C)c23)c1C
1.4,0.81,COc1ccc(S(=O)(=O)N2CCCC2C(=O)Nc2nc3c(s2)CCCC3)cc1 (centres undefined)
-1.9,0.48,Cc1ccc(-c2ccc(SCC(=O)N3CCc4ccccc43)nn2)cc1
0.05,0.52,Cc1ccc(S(=O)(=O)CC(=O)Nc2ccc(S(=O)(=O)Nc3onc(C)c3C)cc2)cc1
-1.4,1.6,COc1ccc(CNCc2cc(C)c(OC)cc2C)c(OC)c1
-1.8,0.01,O=c1c(Cl)c(NCc2ccc(F)cc2)cnn1C12CC3CC(CC(C3)C1)C2
0.23,0.12,O=S(=O)([N-]c1nc2ccccc2nc1-[n+]1ccc(-c2ccncc2)cc1)c1ccccc1

# (further entries)
KCNQ2 enhance baseline,KCNQ2 enhance,structure
-2.3,0.22,CC1CCCC(NC(=O)CCCn2ncn3c(cc4occc43)c2=O)C1C (centres undefined)
-0.41,1.4,CC(=O)C1C(c2cccc(F)c2)NC(=O)NC1(O)C(F)(F)F (centres undefined)
0.03,0.14,Cc1ccc(C23CC4CC(CC(C(=O)N5CCN(C)CC5)(C4)C2)C3)cc1
1.7,0.46,CCCNC(=O)CCc1c(C)nc2nc(-c3cc(OC)cc(OC)c3)nn2c1C
1.6,0.6,Cc1nc2c(=O)n(-c3ccc(F)c(Cl)c3)nc(C)c2s1
-1.5,0.23,O=C(NCc1ccccc1)C1CCC(CNS(=O)(=O)c2cccs2)CC1 (centres undefined)
0.58,0.03,CCc1cccc(OCCOCCN2CCCC2)c1
-1.5,2.5,CC(C)(C)NC(=O)C(=O)NNC(=O)c1ccccc1
0.18,1.5,O=C(Cc1nnc(NC(=O)c2cccc([N+](=O)[O-])c2)s1)NCc1ccccc1
-3.1,1.3,O=c1cc(-c2ccccc2Cl)oc2c([N+](=O)[O-])c(O)cc(O)c12
1.4,2.4,CNC(=S)N1CCC(n2cnc3ccccc32)CC1
0.67,0.02,CCCCn1c(N)c(N(CCC(C)C)C(=O)CCCc2nc3ccccc3s2)c(=O)[nH]c1=O
-0.12,2,COc1ccc(CCC(=O)NCc2cnn(C)c2)cc1
0.18,0.47,C#CCOCCOCCOCCNc1nc(N2CCN(C(=O)[C@H](Cc3ccc(O)cc3)n3cc([C@@H](N)C(C)CC)nn3)CC2)nc(N2CCN(C(=O)[C@H](Cc3cc4ccccc4[nH]3)n3cc([C@@H](N)Cc4ccc(O)cc4)nn3)CC2)n1 (some centres undefined)
-2.2,0.28,Nc1ccc(C(=O)c2ccc3c(c2)OCCO3)cc1N

# The closing six compounds of the section above come first, to join the parts:
KCNQ2 enhance baseline,KCNQ2 enhance,structure
-3.1,1.3,O=c1cc(-c2ccccc2Cl)oc2c([N+](=O)[O-])c(O)cc(O)c12
1.4,2.4,CNC(=S)N1CCC(n2cnc3ccccc32)CC1
0.67,0.02,CCCCn1c(N)c(N(CCC(C)C)C(=O)CCCc2nc3ccccc3s2)c(=O)[nH]c1=O
-0.12,2,COc1ccc(CCC(=O)NCc2cnn(C)c2)cc1
0.18,0.47,C#CCOCCOCCOCCNc1nc(N2CCN(C(=O)[C@H](Cc3ccc(O)cc3)n3cc([C@@H](N)C(C)CC)nn3)CC2)nc(N2CCN(C(=O)[C@H](Cc3cc4ccccc4[nH]3)n3cc([C@@H](N)Cc4ccc(O)cc4)nn3)CC2)n1 (some centres undefined)
-2.2,0.28,Nc1ccc(C(=O)c2ccc3c(c2)OCCO3)cc1N
0.42,0.65,CC(C)(C)NC(=O)NC(=O)CN1CCCCC1
1.2,0.63,CCOc1ccc(C2/C(=C(\O)c3ccc4c(c3)OCCO4)C(=O)C(=O)N2CCN2CCOCC2)cc1OCC (centres undefined)
-1.2,2.1,CS(=O)(=O)Nc1cccc(C2=NN(C(=O)c3cccc(F)c3)C(c3cccs3)C2)c1 (centres undefined)
-2.4,0.75,CC(C)OC(=O)CSc1nnc(-c2cccnc2)n1Cc1ccccc1
-0.5,0.02,Nc1nc2n(n1)C(c1cccs1)CC(c1ccccc1)N2 (centres undefined)
-0.22,0.01,O=C(Nc1ccccc1)N1CCCN(c2ccc(C(F)(F)F)cc2[N+](=O)[O-])CC1
1.2,0.86,CCC(=O)N1c2ccccc2NC2=C(C(=O)CCC2)C1c1ccccc1 (centres undefined)
0.83,0.56,Cc1c(NC(=O)c2cccc(NC(=O)c3ccco3)c2)cccc1C(=O)O
-2.1,0.52,CCN(CC)C(=O)C1CC(=O)N(c2ccc(OC)cc2)C1c1ccc(OC)cc1 (centres undefined)
-0.55,0.12,COc1ccc(N(C)S(=O)(=O)c2ccc3c(c2)NC(=O)CC(=O)N3)c(OC)c1
-2,0.69,CCOC(=O)N1CCC(NC(=O)c2cccc3c2C(=O)N(CCOC)C3)CC1
0.15,0.43,CC1CCCCC1NC(=O)C1CCC(CNS(=O)(=O)c2ccccc2)CC1 (centres undefined)
0.94,0.07,COc1cc2c(cc1OC)C(C1C(=O)CC(C)CC1=O)N(C(=O)CCl)CC2 (centres undefined)
0.42,0.55,O=C(COc1cccnc1[N+](=O)[O-])N1CCc2ccccc21
0.52,1.3,O=C1c2ccccc2-n2c1nc1ccccc1c2=O

# (next part)
KCNQ2 enhance baseline,KCNQ2 enhance,structure
2.4,1,Cn1nnc2cc(C(=O)Nc3cccnc3)ccc21
0.94,1.6,CC(=O)Nc1ccc(S(=O)(=O)N2CCN(Cc3ccccn3)CC2)cc1
-0.95,1.5,CCOC(=O)C1=C(N)OC2=C(C(=O)CC(C)(C)C2)C1c1ccco1 (centres undefined)
-2.4,1.3,O=C(CSc1nc2ncc(Cl)cc2[nH]1)NC1CCS(=O)(=O)C1 (centres undefined)
-0.63,0.34,COc1ccc(Oc2ccc(/C=N/NC(=O)c3cccnc3)cc2[N+](=O)[O-])cc1
0.09,0.57,O=c1nc(NCc2ccco2)sc2ncccc12

# Compound activity as filed in PubChem.
